Mtb betalactam: beta-lactam sensitization of Mtb H37Rv. inhibition, % at 25 µM. M. tuberculosis H37Rv growth with meropenem, percent inhibition; hits of this screen are not shown here. actives 0.27% (n = 330,000). AID 434955;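 active means about 74% or more and at least 40 points above the plate without the antibiotic, then above 30% in a dose series; inconclusive means first-round hits that could not be retested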;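 further: growth measured after seven days incubation then overnight dye step; 0% = bacteria only wells and 100% = bacteria with antibiotic; twin plates without the antibiotic show which effects depend on it; some results filed as inactive read as strong as hits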
YopH inh: blocks Yersinia enterocolitica YopH tyrosine phosphatase; actives 0.16% (n = 140,000); inhibition, %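 (about 10 µM by stock and volumes)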; fluorescence Ex485/Em525;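 active means inhibition of 50% or more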;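 further: controls were vehicle for no effect and minimum signal wells for full effect; inactives centre near -20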
Arbovirus inh: blocks arbovirus infection; arbovirus infection cell-based antiviral screen; actives 0.37% (n = 200,000); inhibition, % at 10 µM;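 active means inhibition from about 30%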;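 further: bluetongue infection of BSR cells; cell survival read as ATP light after 72 h; 0% = infected wells without compound and 100% = uninfected wells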
RecA intein inh: inhibitors of M. tuberculosis RecA intein splicing; actives 0.75% (n = 290,000); inhibition, %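 (about 9 µM by stock and volumes)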; cell-free RecA intein splicing, fluorescence; in the data active means inhibition above about 30%; inconclusive means no clear call, values can overlap the other calls;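 further: 0% = vehicle wells and 100% = reference inhibitor control wells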
Target sequence (P9WHJ3 whole entry, looked up): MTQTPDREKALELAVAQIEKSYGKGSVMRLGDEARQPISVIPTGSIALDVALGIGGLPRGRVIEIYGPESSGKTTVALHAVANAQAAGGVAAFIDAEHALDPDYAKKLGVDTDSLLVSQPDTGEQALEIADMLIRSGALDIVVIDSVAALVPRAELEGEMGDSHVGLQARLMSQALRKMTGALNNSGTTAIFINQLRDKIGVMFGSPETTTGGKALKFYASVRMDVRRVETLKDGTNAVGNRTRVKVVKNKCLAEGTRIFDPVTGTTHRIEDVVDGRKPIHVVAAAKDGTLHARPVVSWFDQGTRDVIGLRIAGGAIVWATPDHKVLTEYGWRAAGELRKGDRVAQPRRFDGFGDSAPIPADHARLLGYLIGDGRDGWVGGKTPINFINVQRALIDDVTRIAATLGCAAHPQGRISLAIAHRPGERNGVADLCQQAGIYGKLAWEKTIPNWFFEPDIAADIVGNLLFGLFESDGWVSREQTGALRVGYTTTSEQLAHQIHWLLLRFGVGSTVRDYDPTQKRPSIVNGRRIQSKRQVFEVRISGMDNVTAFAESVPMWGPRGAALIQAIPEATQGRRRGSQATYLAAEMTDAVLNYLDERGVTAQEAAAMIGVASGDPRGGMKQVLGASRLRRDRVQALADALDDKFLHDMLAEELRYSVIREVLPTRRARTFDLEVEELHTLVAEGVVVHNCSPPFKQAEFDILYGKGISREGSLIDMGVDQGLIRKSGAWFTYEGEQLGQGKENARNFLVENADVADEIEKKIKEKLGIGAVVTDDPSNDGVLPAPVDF
Mtb H37Rv: M. tuberculosis H37Rv growth inhibitors, H37Rv strain (AID 1626); inhibition, % at 10 µM, or IC50 in µM where a hit was titrated; actives 0.95% (n = 220,000); M. tuberculosis H37Rv growth inhibition; higher % means a stronger effect;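 active means confirmed in a dose series; inconclusive means inhibition above 80% but not taken into the dose series; inactive means below 80% or under 30% at every dose of the series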;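 further: bacteria incubated seven days before Alamar blue readout; 0% = bacteria only wells and 100% = bacteria with antibiotic wells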
Arbovirus inh repeat: second read-out of Arbovirus inh, no call of its own (marks repeat the call); inhibition, %; measured here: 10K subset replicate screen; many hits read low in the repeat;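 first of two repeat runs on a subset; 0% = infected and 100% = uninfected wells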
* marks the source's active call; other numbers are inactive results; ? = inconclusive; nt = not tested or not shown. The list is partial, so the mix of outcomes need not match the whole.

SMILES	Mtb betalactam	YopH inh	Arbovirus inh	RecA intein inh	Mtb H37Rv	others
COCCN(C(=O)CSc1nn(-c2ccc(F)cc2)c(=S)s1)c1c(N)n(CC(C)C)c(=O)[nH]c1=O	-14	nt	nt	1.7	nt
COc1cc(CCC(=O)OCc2nnc(-c3ccccc3)o2)cc(OC)c1OC	-7	-30	7	0.1	-7%
CC(C)(C)C(=O)Nc1ccccc1-c1nc2ccccc2[nH]c1=O	2	nt	nt	2.0	nt
O=C(NCC(=O)N1CCCCCC1)c1ccc(Cl)cc1	-4	nt	nt	-3.2	nt
CCCC(=O)Nc1ccc2c(c1)nc(CN1CCN(C(=O)OCC)CC1)n2C	-9	nt	nt	1.7	nt
Cc1cc(C)c(-n2[nH]nnc2=S)c(C)c1	-5	nt	nt	4.0	-6%
Nc1cc(=O)[nH]c(SCc2csc(-c3ccccc3)n2)n1	95	-43	-3	1.7	0%
Cc1cc(C)nc(N/N=C/c2c(C)oc3ccccc23)n1	-3	nt	1	-4.4	-4%
Cc1sc(NC(=O)c2ccco2)nc1-c1ccc2c(c1)CC(C)N2C(=O)C1CC1 (stereo unspecified)	98	-32	-13	6.5	10%
O=C(NC1CCCCCC1)C1CCCN1S(=O)(=O)c1cccc2cccnc12 (stereo unspecified)	-2	-62	1	-2.3	-6%	Arbovirus inh repeat=4
S=C(NCC1CCCO1)n1nnc2ccccc21 (stereo unspecified)	4	-16	nt	1.5	1%
CCOc1ccc(-c2nn3c(-c4ccccc4)nnc3s2)cc1	97	6	-8	nt	-1%
COC(=O)[C@H](Cc1ccccc1)NC(=O)NCCc1ccc(OC)cc1	6	nt	nt	-1.4	nt
O=C(COc1ccc(S(=O)(=O)NC2CCCCC2)cc1)Nc1ccc2c(c1)OCCO2	-7	-27	4	3.3	-4%	Arbovirus inh repeat=-5
Cc1cccc(C)c1OC(=O)CCN1C(=O)C2C3C=CC(C4CC34)C2C1=O (stereo unspecified)	0	nt	-6	2.0	0%
COc1ccc(CCNC(=O)CN(c2cc(OC)ccc2OC)S(=O)(=O)c2ccccc2)cc1	-6	nt	nt	-1.1	nt
COc1ccc(S(=O)(=O)N2CCOC2CNC(=O)C(=O)NCc2ccccn2)cc1C (stereo unspecified)	-14	nt	nt	1.6	nt
CCc1ccc(C(=O)CSc2nc3cc(S(=O)(=O)N4CCOCC4)ccc3n2CC)cc1	-2	-30	11	4.1	2%
C/C(=N/NC(=O)c1sc(NS(=O)(=O)c2ccccc2)nc1C)c1sc(N)nc1C	0	nt	nt	1.1	nt
Cn1cccc1/C=N/N1CCN(Cc2cccc3ccccc23)CC1	-4	nt	nt	-3.0	-3%
COc1ccc(NS(=O)(=O)c2ccc(N3CCOCC3)c(NC(=O)c3ccco3)c2)cc1	5	nt	5	-2.0	5%
Cc1cc(NC(=O)C23CC4CC(CC(C4)C2)C3)n[nH]1	4	nt	1	-0.9	3%
Cc1ccc(-c2cccc(C3CC=CC4C3C(=O)N(Cc3ccccc3)C4c3ccc4ccccc4c3)c2)cc1 (stereo unspecified)	-7	nt	nt	1.8	7%
COC(=O)CN1C(=O)C2(C(C#N)=C(N)Oc3c2c(C)nn3-c2ccccc2)c2ccccc21 (stereo unspecified)	-2	-18	-20	75*	-6%
Cc1cccc(N2CC34C=CC(O3)C(C(=O)O)C4C2=O)c1 (stereo unspecified)	-4	-4	-2	-0.1	-12%
CCOC(=O)c1[nH]c(C)c(C(=O)OC(C)C(=O)Nc2ncc(Cl)cc2Cl)c1C (stereo unspecified)	-5	10	-14	1.4	-9%
CCOC(=O)N1CCN(C(=O)c2ccc3c(=O)n(-c4ccc(F)cc4)c(=S)[nH]c3c2)CC1	-2	-1	-5	3.0	-1%
O=c1cccccc1NCc1ccccc1	-1	-24	-3	-4.9	-3%
O=C(NC1CCCCCC1)C1CC(=O)N(c2ccc(Cl)cc2)C1 (stereo unspecified)	2	nt	nt	1.6	nt
O=C(NCCN1CCOCC1)c1cc(S(=O)(=O)NCCCN2CCCC2=O)ccc1Cl	-3	-31	-2	1.5	-8%
CCCc1cc(C(=O)Nc2sc(C)c(C)c2C(=O)OCC)no1	nt	21	4	nt	7%	Arbovirus inh repeat=0
COc1ccc(COCC(O)CN2CCc3ccccc3C2)cc1OC (stereo unspecified)	6	nt	-4	1.0	-2%
COc1ccc(C(C(=O)NCC2CCCO2)N(Cc2ccc(F)cc2)C(=O)CNC(=O)c2ccco2)cc1OC (stereo unspecified)	-9	nt	nt	-1.4	nt
COc1ccc(CCN(C)C(=O)COc2ccc(C(=O)c3ccccc3)cc2)cc1OC	-15	nt	nt	1.4	nt
COc1cccc(C(=O)COC(=O)c2n[nH]c(=O)c3ccccc23)c1	-1	nt	-3	-3.3	3%
CCn1cc(C(=O)Nc2cccc(C(=O)OC)c2)c(=O)c2ccc(C)nc21	4	nt	nt	-1.1	-3%
O=C(O)CCCC(=O)N1CCc2cc(S(=O)(=O)NCc3ccc(F)cc3)ccc21	1	nt	16	-2.3	-4%
O=C(Nc1ccc(Br)cc1)C1OCCc2ccccc21 (stereo unspecified)	-7	nt	nt	-2.8	5%
COc1cc(/C=N/Nc2nc3ccccc3s2)ccc1OC(=O)c1ccccc1F	51	-9	2	-1.0	20%
CC(=O)Nc1ccc(Nc2nc(-c3sc(C)nc3C)cs2)cc1	-4	nt	nt	3.4	nt
O=C(OCC(=O)N(CCc1ccccc1)Cc1ccccc1)c1ccccc1NCCO	4	nt	nt	3.3	nt
CC(C)CNC(=O)c1ccc(NC(=O)c2cccs2)cc1	-4	-34	-7	0.3	-6%
CC(C)C(CC(=O)N1CCCCC1)C1CCOC(C)(C)C1 (stereo unspecified)	1	5	9	-1.4	-2%
NC(=O)C1CCN(C(=O)C2CCC(=O)N(CC3CCCCC3)C2)CC1 (stereo unspecified)	2	nt	nt	-2.4	nt
Fc1cccc(-c2n[nH]c(=S)n2-c2ccccc2)c1	-8	nt	nt	0.3	nt

7 records picked at random from the list so far, as already listed:
SMILES	Mtb betalactam	YopH inh	Arbovirus inh	RecA intein inh	Mtb H37Rv	others
COc1cc(CCC(=O)OCc2nnc(-c3ccccc3)o2)cc(OC)c1OC	-7	-30	7	0.1	-7%
Cn1cccc1/C=N/N1CCN(Cc2cccc3ccccc23)CC1	-4	nt	nt	-3.0	-3%
COc1ccc(CCNC(=O)CN(c2cc(OC)ccc2OC)S(=O)(=O)c2ccccc2)cc1	-6	nt	nt	-1.1	nt
CC(C)C(CC(=O)N1CCCCC1)C1CCOC(C)(C)C1 (stereo unspecified)	1	5	9	-1.4	-2%
O=C(NC1CCCCCC1)C1CCCN1S(=O)(=O)c1cccc2cccnc12 (stereo unspecified)	-2	-62	1	-2.3	-6%	Arbovirus inh repeat=4
COc1ccc(S(=O)(=O)N2CCOC2CNC(=O)C(=O)NCc2ccccn2)cc1C (stereo unspecified)	-14	nt	nt	1.6	nt
CCCc1cc(C(=O)Nc2sc(C)c(C)c2C(=O)OCC)no1	nt	21	4	nt	7%	Arbovirus inh repeat=0

(next part)
SMILES	Mtb betalactam	YopH inh	Arbovirus inh	RecA intein inh	Mtb H37Rv	others
COc1ccc(NC(=S)NNC(=O)C2CC2c2ccc(C)cc2)cc1 (stereo unspecified)	2	-9	4	3.1	20%
Cc1ccc(S(=O)(=O)N2CCCCC2)cc1NC(=O)COC(=O)Cc1cccc(C(F)(F)F)c1	3	-2	-1	1.2	-1%
CS(=O)(=O)c1ccc2sc(NC(=O)c3cc4ccccc4o3)nc2c1	3	nt	nt	-1.1	-2%
Cc1ccccc1C1CC(c2ccccc2)Nc2ncnn21 (stereo unspecified)	0	-21	-7	-0.6	10%
COc1ccccc1N1CCN(CCCNc2c(C)c(=O)n(C)c(=O)n2C)CC1	-1	nt	nt	-3.6	-9%
Cn1c(NC(=O)c2ccccc2)c(-c2ccccn2)c(=O)c2ccccc21	2	-4	-2	5.2	-3%
C=CCn1c(Sc2nncn2C)nc2c1c(=O)[nH]c(=O)n2C	-2	-117	11	4.9	-19%
COc1ccc(C2C(C(C)=O)=C(O)C(=O)N2c2ccc(C)cc2)cc1 (stereo unspecified)	1	nt	nt	-13	nt
COc1ccc(NC(=O)CN2CC(c3ccccc3)CC2=O)cc1OC (stereo unspecified)	-3	-22	-5	-1.3	-9%	Arbovirus inh repeat=1
Cc1c(Cl)ccc2c(C(=O)Nc3cc(C(C)(C)C)on3)cc(-c3ccccn3)nc12	?	nt	nt	0.4	nt
COc1ccc(C(=O)Nc2ccc(C3(C#N)CCCC3)cc2)cc1	-2	nt	-4	2.6	-2%
O=C(CCN1C(=O)c2ccccc2S1(=O)=O)Nc1ccccc1O	2	-32	-2	-4.6	-3%
Cc1cnc(C(=O)Nc2cccc(-c3nnc4n3CCCCC4)c2)cn1	-15	nt	nt	-0.3	-12%
CCOc1ccccc1-c1nc(-c2cc3ccccc3nc2OC)no1	-9	-19	-3	0.1	6%
N#Cc1ccc(-c2nc3ccccc3nc2-c2ccccc2)cc1C#N	-4	-26	-8	-4.5	1%
Cc1cc(Cl)c(S(=O)(=O)Nc2ccc3c(c2)OCCO3)cc1OCC(=O)NC1CCCCC1	-3	-16	-1	0.7	-9%
CC1CCCCN1c1nnc(NC(=O)Cn2c(=O)oc3ccccc32)s1 (stereo unspecified)	-5	-20	9	-0.1	-1%	Arbovirus inh repeat=7
C=CCOc1cccc(CNCCCN2CCOCC2)c1	3	nt	2	4.1	0%
O=C(COC(=O)c1ccccc1C(=O)c1ccccc1)NCCc1ccc(Cl)cc1Cl	4	-6	13	29	-1%
COc1cccc(C(=O)Nc2ccc(NC(=O)C3CC=CCC3C(=O)O)cc2)c1 (stereo unspecified)	-4	nt	nt	2.0	nt
CC(C)c1ccc(S(=O)(=O)c2cnc(=S)[nH]c2N)cc1	1	nt	nt	3.4	nt
O=c1cc(N2CCCCC2)c(-c2ccccc2)n[nH]1	-7	nt	3	0.7	-3%
CN1CCN(C(=O)CSc2ccc(Cl)cc2)CC1	-3	nt	0	-3.2	-5%
COc1cccc(/C(C)=N/NS(=O)(=O)c2ccc(Cl)cc2)c1	-1	nt	8	1.8	3%
COc1ccc(C(=O)C(O)C(c2ccc(C)cc2)N2CCOCC2)cc1OC (stereo unspecified)	3	nt	nt	-3.6	nt
O=C1CC(N2CCCc3ccccc32)C(=O)N1c1ccccc1Cl (stereo unspecified)	-2	-21	3	0.6	-5%
O=C(NCCc1ccccc1)C1(S(=O)(=O)c2ccc(Cl)cc2)CC1	-4	nt	nt	-0.3	nt
CC(Sc1nc(N)c2c3c(sc2n1)CSC(C)(C)C3)C(=O)Nc1ccccc1 (stereo unspecified)	55	-29	25	1.1	25%
CN(C(=O)c1ccccc1OC1CCN(S(C)(=O)=O)CC1)C1CCOC1 (stereo unspecified)	1	nt	-5	-3.5	0%
CN1CCCN(C(=O)c2ccc(Br)s2)CC1	-3	nt	nt	-4.4	nt
Cc1onc(-c2ccccc2)c1C(=O)NC(=S)NNC(=O)c1ccncc1	96	-25	-30	-1.5	80%
CC(=O)Nc1ccc(/C(C)=N/NS(=O)(=O)c2ccccc2)cc1	4	-24	-6	-1.7	1%
Cc1nn(-c2ccccc2)c(N)c1N=Nc1cccc(S(=O)(=O)N2CCOCC2)c1	-4	nt	nt	0.7	10%
CN(C(=O)CSC1=Nc2ccccc2C2=NC(c3ccccc3)C(=O)N12)C1CCCCC1 (stereo unspecified)	11	11	-1	7.7	-4%
Cc1ccc(/C(N)=N/OC(=O)COc2ccccc2Cl)cc1	4	-15	-7	-2.6	16%
COc1ccc2c(c1)c(C(=O)N/N=C/c1cccc(O)c1)c(C)n2C	-2	-15	3	-2.3	3%
O=C1ON=C(c2ccccc2)/C1=C/c1cccnc1	nt	nt	12	nt	2%
CN(C)S(=O)(=O)c1ccc(S(=O)(=O)NC2CCOC(C)(C)C2)cc1 (stereo unspecified)	0	4	4	0.7	-7%
Nc1ccc(Oc2ccc3nc(-c4ccccc4)c(-c4ccc([N+](=O)[O-])cc4)nc3c2)cc1	43	-23	-13	1.7	79%
COc1ccc2nc(SC)c(C#N)cc2c1	2	nt	-6	-3.7	1%
CC1Nc2ncnc(N3CCN(c4ccccc4)CC3)c2N(Cc2ccc(Br)cc2)C1=O (stereo unspecified)	99	nt	nt	15	nt
COC(=O)C(CC(C)C)NC(=O)CNC(=O)c1ccccc1C (stereo unspecified)	61	-27	-3	-0.3	1%
O=C(NCC1CCN(Cc2ccccc2Cl)CC1)Nc1ccccc1F	-3	nt	nt	-0.6	nt
CCN1C(=O)[C@H]2[C@@H](c3ccc(-c4ccc(Cl)c(Cl)c4)c(OC)c3)N[C@@](Cc3ccccc3)(C(=O)OC)[C@H]2C1=O	-14	nt	nt	7.4	nt

Screening data (PubChem BioAssay)
